# Mtb bLac sens: beta-lactam sensitization of Mtb H37Rv, H37Rv | 330,000 tested, 0.27% active | inhibition, % at 25 µM | M. tuberculosis H37Rv growth with meropenem, percent inhibition; hits of this screen are not shown here | AID 434955, 2010;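 active = about 74% or more and at least 40 points above the plate without the antibiotic, then above 30% in a dose series; inconclusive = first-round hits that could not be retested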;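 also: growth measured after seven days incubation then overnight dye step; 0% = bacteria only wells and 100% = bacteria with antibiotic; twin plates without the antibiotic show which effects depend on it; some results filed as inactive read as strong as hits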
# YopH PTP inh: YopH tyrosine phosphatase inhibitors, primary screen, biochemical, fluorescence Ex485/Em525; YopH tyrosine phosphatase [Yersinia enterocolitica]; inhibition, %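 (about 10 µM by stock and volumes)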; 140,000 tested, 0.16% active;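 active = inhibition of 50% or more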;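 also: controls were vehicle for no effect and minimum signal wells for full effect; inactives centre near -20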
# RecA intein inh: Mtb RecA intein splicing inhibitors, primary screen, biochemical, fluorescence, HTS | cell-free RecA intein splicing | inhibition, %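 (about 9 µM by stock and volumes)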 | 290,000 tested, 0.75% active | AID 2221, 2009; in the data active = inhibition above about 30%; inconclusive = no clear call, values can overlap the other calls;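 also: 0% = vehicle wells and 100% = reference inhibitor control wells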
# Target sequence (P9WHJ3 whole entry, looked up): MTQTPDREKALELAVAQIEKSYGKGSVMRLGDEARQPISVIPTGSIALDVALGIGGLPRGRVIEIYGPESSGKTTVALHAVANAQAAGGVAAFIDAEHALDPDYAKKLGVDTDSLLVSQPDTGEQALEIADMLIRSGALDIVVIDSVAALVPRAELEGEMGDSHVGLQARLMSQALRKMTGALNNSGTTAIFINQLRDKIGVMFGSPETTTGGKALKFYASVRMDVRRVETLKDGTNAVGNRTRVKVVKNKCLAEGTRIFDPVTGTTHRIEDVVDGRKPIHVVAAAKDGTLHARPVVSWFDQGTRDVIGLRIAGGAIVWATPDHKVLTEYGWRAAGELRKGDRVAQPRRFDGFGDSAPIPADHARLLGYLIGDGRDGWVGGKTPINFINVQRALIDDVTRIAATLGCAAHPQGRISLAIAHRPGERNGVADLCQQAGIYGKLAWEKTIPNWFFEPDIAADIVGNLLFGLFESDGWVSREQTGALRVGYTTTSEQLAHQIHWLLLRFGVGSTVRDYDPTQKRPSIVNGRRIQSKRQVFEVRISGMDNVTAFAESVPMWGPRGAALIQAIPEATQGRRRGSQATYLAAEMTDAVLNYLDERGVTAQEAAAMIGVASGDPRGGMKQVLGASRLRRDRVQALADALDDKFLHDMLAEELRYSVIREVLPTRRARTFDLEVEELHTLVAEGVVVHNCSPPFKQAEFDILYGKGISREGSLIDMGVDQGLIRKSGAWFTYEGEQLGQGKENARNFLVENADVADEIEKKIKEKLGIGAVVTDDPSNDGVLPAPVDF
# Mtb growth: M. tuberculosis H37Rv growth inhibitors, H37Rv strain (AID 1626); 220,000 tested, 0.95% active; M. tuberculosis H37Rv growth inhibition; higher % means a stronger effect; one-dose inhibition, % at 10 µM; IC50 in µM for titrated hits;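 active = confirmed in a dose series; inconclusive = inhibition above 80% but not taken into the dose series; inactive = below 80% or under 30% at every dose of the series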;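 also: bacteria incubated seven days before Alamar blue readout; 0% = bacteria only wells and 100% = bacteria with antibiotic wells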
# Arbovirus inh: antivirals against arbovirus infection, primary screen, cell-based, full library, 10K replicate subset; 200,000 tested, 0.37% active; arbovirus infection cell-based antiviral screen; inhibition, % at 10 µM;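 active = inhibition from about 30%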;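 also: bluetongue infection of BSR cells; cell survival read as ATP light after 72 h; 0% = infected wells without compound and 100% = uninfected wells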
# Arbovirus inh repeat: second read-out of Arbovirus inh, no call of its own (marks repeat the call); inhibition, %; measured here: 10K subset replicate screen; many hits read low in the repeat;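 first of two repeat runs on a subset; 0% = infected and 100% = uninfected wells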
# * = called active by the depositor; ? = inconclusive; / = not tested or not shown.
SMILES,Mtb bLac sens,YopH PTP inh,RecA intein inh,Mtb growth,Arbovirus inh,others
CCOc1ccc(CCNC(=O)CS(=O)Cc2nc(-c3ccc(OC)cc3)oc2C)cc1OCC (configuration not stated),4.5,/,2.2,/,/,
Cc1ccc(O)c(N=Cc2cccs2)c1,5.8,18.2,1.7,4.1%,-9.7,
Cc1ccc(S(=O)(=O)N/N=C/c2c[nH]c3ccccc23)cc1,2.0,/,-4.7,6.8%,14.1,
Cc1cn(CC2COC(C)(C)O2)c(=O)[nH]c1=O (configuration not stated),-12.1,-15.2,-0.4,4.2%,-7.4,
COc1ccc(-c2cc(C(=O)Nc3ccc(S(=O)(=O)Nc4onc(C)c4C)cc3)c3ccccc3n2)cc1,15.0,/,/,-1.6%,/,
CCNC(=O)COC(=O)CNC(=O)c1cc(Cl)cc([N+](=O)[O-])c1,-1.7,-23.4,2.4,-10.0%,-3.4,
Cc1ccc(S(=O)(=O)N2CCC(C(=O)NCCN3CCCCCC3)CC2)cc1,-7.8,-24.8,-0.3,0.9%,-4.9,
CC(C)(C)c1csc(CS(=O)(=O)c2ccccn2)n1,-1.4,/,0.8,-1.6%,/,
CC(/C=N/NC(=O)C(O)c1ccccc1)=C\c1ccccc1 (configuration not stated),-3.4,-45.3,-0.3,-5.1%,-2.7,
COc1ccc(NC(=O)CSc2ccc3nnc(CCNC(=O)c4ccccc4)n3n2)cc1,-4.4,/,-0.6,/,/,
COCCNC(=S)N1CCC(NC(=O)C23CC4CC(CC(C4)C2)C3)CC1,-4.2,/,-4.0,1.7%,-0.4,
COc1cc(NC(=O)CSCc2cnn(-c3ccccc3)c2-n2cccc2)cc(OC)c1,-11.5,7.0,-1.0,-12.8%,-8.3,
CN1CCN(c2nc(-c3cccc([N+](=O)[O-])c3)nc3ccccc23)CC1,5.9,/,3.5,/,/,
O=C(O)CCCCCN1C(=O)/C(=C/c2ccncc2)SC1=S,57.8,-28.6,5.6,3.5%,13.3,
C[C@@H]1CN(Cc2nc(-c3cccs3)no2)C[C@H](C)O1,-5.0,/,-1.3,4.1%,-3.2,
Cc1ccc(N2CC(C(=O)NCCC3=CCCCC3)CC2=O)cc1 (configuration not stated),-13.3,/,-0.2,/,/,
N#CCCN(CCC#N)C(=O)c1ccc(Cl)cc1,1.3,-40.0,0.5,2.1%,-4.7,Arbovirus inh repeat=-1.7
COc1ccc(/C(C)=N/NC(=O)CNC(=O)c2cccnc2)c(OC)c1,-2.0,/,-2.3,/,/,
O=c1[nH]nc(Cc2ccc(Cl)cc2Cl)c2ccccc12,-9.2,-20.1,-0.1,5.3%,0.8,
COc1ccc(NS(=O)(=O)c2cc(C(=O)Nc3ccccc3C(=O)O)ccc2C)cc1,2.5,/,0.2,/,/,
CNC(=S)NNC(=O)c1cccs1,-15.2,/,-3.0,2.9%,/,
Cc1cccc(C)c1NC(=O)COc1ccc2c(C)c(Cc3ccccc3)c(=O)oc2c1C,3.4,-6.2,0.2,-3.0%,-14.7,
COc1cccc(NC(=O)N2CCCC2C(=O)Nc2cc(C)ccc2OC)c1 (configuration not stated),5.4,/,1.7,/,/,
CCOC(=O)C1CCCN(CCC(=O)Nc2cc(C)ccc2C)C1 (configuration not stated),-1.0,/,/,-1.9%,3.8,
COc1ccc2c(c1)c(-c1csc(N)n1)c(C)n2C,10.1,/,-1.4,/,/,

# Gathered by group: the entries above with a nitro group on carbon (2)
SMILES,Mtb bLac sens,YopH PTP inh,RecA intein inh,Mtb growth,Arbovirus inh,others
CCNC(=O)COC(=O)CNC(=O)c1cc(Cl)cc([N+](=O)[O-])c1,-1.7,-23.4,2.4,-10.0%,-3.4,
CN1CCN(c2nc(-c3cccc([N+](=O)[O-])c3)nc3ccccc23)CC1,5.9,/,3.5,/,/,

# The main list resumes, starting 6 compounds before the break.
SMILES,Mtb bLac sens,YopH PTP inh,RecA intein inh,Mtb growth,Arbovirus inh,others
COc1ccc(NS(=O)(=O)c2cc(C(=O)Nc3ccccc3C(=O)O)ccc2C)cc1,2.5,/,0.2,/,/,
CNC(=S)NNC(=O)c1cccs1,-15.2,/,-3.0,2.9%,/,
Cc1cccc(C)c1NC(=O)COc1ccc2c(C)c(Cc3ccccc3)c(=O)oc2c1C,3.4,-6.2,0.2,-3.0%,-14.7,
COc1cccc(NC(=O)N2CCCC2C(=O)Nc2cc(C)ccc2OC)c1 (configuration not stated),5.4,/,1.7,/,/,
CCOC(=O)C1CCCN(CCC(=O)Nc2cc(C)ccc2C)C1 (configuration not stated),-1.0,/,/,-1.9%,3.8,
COc1ccc2c(c1)c(-c1csc(N)n1)c(C)n2C,10.1,/,-1.4,/,/,
CCN(Cc1ccncc1)Cc1nc(-c2ccc(C(=O)OC)cc2)no1,70.8,/,4.2,29.4%,7.6,
CCOP(=O)(C(NC(=O)c1ccccc1Cl)=C(Cl)Cl)c1ccccc1 (configuration not stated),?,-2.9,3.3,-7.6%,-2.4,
Cc1csc2c(N3CCN(C(=S)Nc4ccc(F)cc4F)CC3)ncnc12,-2.7,/,8.7,1.6%,/,
CCCN1C(=O)c2cc(C(=O)NCc3cccs3)ccc2C1O (configuration not stated),/,-10.0,/,-13.3%,5.2,Arbovirus inh repeat=2.2
Cc1nn(Cc2ccc([N+](=O)[O-])cc2)c(=O)n1-c1cccc(Cl)c1,-5.2,/,6.3,-2.6%,0.6,
COc1ccc(NC(=S)NC2CC3CCC2C3)c(OC)c1 (configuration not stated),-6.5,/,-1.7,/,/,
CC(C)=C1C2CC2C2C(C(=O)O)C12 (configuration not stated),3.9,-25.8,6.7,6.8%,11.9,
O=C1CC(N(CCc2ccccc2)C(=S)Nc2ccccc2)C(=O)N1c1ccc(F)cc1 (configuration not stated),-5.0,/,7.1,-6.2%,/,
CC(CCc1ccco1)NC(=O)Cn1ncc2c(=O)oc3ccccc3c21 (configuration not stated),-0.9,-29.0,0.9,-3.1%,10.0,Arbovirus inh repeat=2.8
O=C(Nc1ccccc1Cl)Nc1ccnn1C1CCN(C(=O)CCN2CCCO2)CC1,9.2,/,4.3,/,/,
O=P(COCCOCCOCP(=O)(c1ccccc1)c1ccccc1)(c1ccccc1)c1ccccc1,-3.6,/,5.0,-5.0%,1.2,
O=C(Nc1cccnc1)c1cnn2cccnc12,0.9,-19.8,-0.5,-5.2%,3.4,
N/N=C(\Cc1cscn1)c1ccc(O)cc1O,2.3,/,-6.4,-2.7%,/,
Cn1c(SCc2ccccc2Cl)nc2c1c(=O)[nH]c(=O)n2C,7.1,/,0.7,/,/,
COc1ccccc1C(C)NC(=O)c1ccc(C)o1 (configuration not stated),6.3,-22.1,2.3,0.1%,-1.6,
COc1ccc(CCNC(=O)C/C(C)=N/NC(=O)COc2ccc(C)cc2Br)cc1OC,-1.6,/,3.5,/,/,
Cc1nonc1NC(=O)CSc1nc2c(C)cccc2cc1C#N,22.0,/,-4.0,7.3%,24.1,
CN(C)C(=O)CSc1nnc(-c2cccnc2)n1-c1ccccc1,7.1,-41.9,0.2,-3.4%,-3.7,Arbovirus inh repeat=-2.0
CN1CCc2c(sc3nc(SCC(=O)N4CCOCC4)nc(N)c23)C1,0.8,0.6,0.8,6.4%,-3.2,Arbovirus inh repeat=4.5
Cc1ccc(CCNC(=O)c2ccc3nc4ccc(Cl)cc4c(=O)n3c2)cc1,0.4,/,-13.8,/,/,
C[C@H](O)[C@H]1CC[C@H]2[C@@H]3CCC4=CC(=O)CC[C@]4(C)[C@H]3CC[C@]12C,-4.9,1.2,1.1,-1.7%,-11.7,
O=C1C(Cc2ccccc2)NC(=S)N1c1ccccc1 (configuration not stated),-9.8,-41.5,0.2,4.8%,3.6,
COc1ccc(/C(C)=N/NC(=O)c2cccc(S(=O)(=O)N3CCCC3)c2)c(O)c1,2.1,/,-14.8,/,/,
CCCC/C(C)=N/NC(=O)C(=O)NCCc1ccccc1,28.1,-42.3,11.7,2.4%,-5.9,
CC(C)Oc1ccc(C(CC(=O)N2CCOCC2)C(C)C)cc1 (configuration not stated),7.0,/,-0.7,/,/,
# Other compounds
SMILES,Mtb bLac sens,YopH PTP inh,RecA intein inh,Mtb growth,Arbovirus inh,others
Cc1ccc(S(=O)(=O)N(CC(=O)Nc2cc(C)ccc2C)C(=O)N2CCN(C)CC2)cc1,-5.2,/,0.0,/,/,
CC(C)c1ccc(NC(=O)CCNC(=O)Cn2cnc3ccccc3c2=O)cc1,-8.0,/,1.7,/,/,
CCc1c(C)c2ccc(OCC(=O)OC)cc2oc1=O,97.2,10.6,-1.3,45.8%,0.9,
COc1ccc(C(=O)NC2CCCCCCC2)cc1OC,0.7,/,-0.3,/,/,
COc1ccc(CCNC(=O)Nc2ccccc2[N+](=O)[O-])cc1,-0.3,/,1.4,9.9%,14.6,
CCOC(=O)c1nn(-c2ccc(Cl)cc2Cl)c(=N)c(C#N)c1C,5.7,/,9.5,-5.0%,/,
COc1ccc(C(=O)N2CCN(c3nc(C4CC4)nc4sc(C)c(C)c34)CC2)cc1,84.7,/,0.9,/,/,
COc1cc(/C=C2/SC(=S)NC2=O)ccc1OS(=O)(=O)c1ccc(C)cc1,49.6,-33.2,35.6*,5.0%,-8.9,
CC(=O)c1cn(CC(=O)Nc2ccccc2C(F)(F)F)c2ccccc12,-1.3,/,-1.2,/,/,
CCOc1ccc(N(CC(=O)Nc2cccc(C)c2C)S(=O)(=O)c2c(C)[nH]c(=O)[nH]c2=O)cc1,-2.1,/,5.6,-0.2%,/,
CCc1nnc(N/N=C/c2ccccc2F)n1N,17.0,/,-1.4,60.5%,-0.7,
CC(=O)NNC(=O)N1Cc2ccccc2Oc2ccc(Cl)cc21,4.0,/,17.1,-2.9%,/,
COc1ccc(CN2CCCN(S(=O)(=O)c3ccc(Br)cc3)CC2)cc1,0.0,/,1.7,/,/,
CCOc1cc(CNc2ccc3c(c2)OCCO3)cc(Br)c1OC,44.8,-16.5,7.7,11.9%,-7.0,
CCCn1c(N)c(C(=O)CSc2nc3ccccc3c(=O)n2-c2ccc(OC)cc2)c(=O)[nH]c1=O,1.8,/,1.4,7.0%,30.7*,
COc1ccccc1NC(=O)Nc1ccc(C(=O)N2CCCCC2)cc1,61.9,/,-5.2,-7.4%,/,
CCOC(=O)c1sc(N)c(C#N)c1CSc1nc2ccc(OCC)cc2[nH]1,-2.9,-29.4,2.9,-6.4%,-5.3,
Fc1ccc(N2CCN(c3nc(-c4ccco4)cc(C(F)(F)F)n3)CC2)cc1,?,-26.2,-0.9,3.1%,15.1,
O=C(CSc1nnc(-c2ccccc2Br)o1)Nc1cccc2ccccc12,-7.0,6.7,5.3,-4.4%,-2.4,
CCn1c(SCC(=O)Nc2ccc(S(N)(=O)=O)cc2)nnc1-c1ccccc1OC,-6.7,15.5,3.1,-12.2%,6.2,
CC(=O)Oc1ccc2c(C)c(CC(=O)N3CCN(C(=O)C4COc5ccccc5O4)CC3)c(=O)oc2c1C (configuration not stated),4.6,/,-43.5,/,/,
COC(=O)COc1cccc(NC(=O)c2ccc(C)cc2)c1,98.6,6.8,0.3,39.2%,3.9,
Cc1ccc(-c2cnc(NC(=O)CCC(=O)N(C)Cc3ccccc3)n2C)cc1,15.8,11.6,1.1,-1.8%,1.1,
CC(C)CCSc1nc2ccccc2[nH]1,-1.6,/,5.4,-4.2%,-0.9,
NC(=O)CSc1nnc2n(N)c(=O)c3ccccc3n12,-2.3,/,3.5,/,/,
# The list goes on:
SMILES,Mtb bLac sens,YopH PTP inh,RecA intein inh,Mtb growth,Arbovirus inh,others
CC(C)(C)c1nc(SCC(=O)c2ccccc2)c2ccccc2n1,9.0,/,2.8,-1.4%,-17.0,
O=S(=O)(c1cccc2cccnc12)n1cnc2ccccc21,0.7,-39.5,-20.0,2.4%,4.8,
CCOc1ccc(NC(=S)Nc2ccc(C)c([N+](=O)[O-])c2)cc1,95.1,15.8,3.6,?,17.0,
OC(CNC1CCCC1)COc1ccccc1Br (configuration not stated),-2.6,/,0.8,/,/,
O=C(C1CCCN(c2ncnc3c2nc2n3CCCCC2)C1)N1CCN(c2ccccc2F)CC1 (configuration not stated),58.7,/,0.4,/,/,
Cc1cc(C)n(-c2nncc(-c3ccccc3)n2)n1,-5.7,-2.4,0.8,-3.7%,-1.6,Arbovirus inh repeat=-3.2
O=c1cc(N2CCCCC2)nc2n1CCCS2,-14.1,-42.9,1.6,-10.4%,3.0,
COc1cc(/C=N/n2nnnc2N)ccc1OC(C)C,1.0,/,-2.7,/,/,
Cc1c(C)c2ccc(OC(C)C(=O)NC3CCN(Cc4ccccc4)CC3)cc2oc1=O (configuration not stated),5.3,/,3.0,/,/,
CCN(CC)CCn1cnc2c([nH]c3cccc(OC)c32)c1=O,-9.4,10.8,-2.8,-6.2%,0.0,

# High-throughput results from PubChem.

# These rows are one share of the data; rates above refer to the full screens.
